From PubChem BioAssay
2A StopGo: FMDV 2A StopGo reporter, luciferase signal; Potency, µM (doses to about 57.9 µM), inactives show at the top dose signal change, negative = less light; 1.2% of 410,000 active; AID 1159524; human cells with a luciferase reporter of 2A StopGo recoding; control for the full effect not named in the record; active = well fitted falling curve with a large enough effect; inconclusive = small, poorly fitted or top-dose-only effect; inactive = no such curve, though single readings can be large or run the other way; tested in HEK293T cells; further: on the % scale 0 is the no-effect control and ±100 the full control effect; nearly all actives have a fitted effect of over 45% in size; luciferase light after 4 h
SARS PLpro yeast: blocks SARS-CoV papain-like protease in a yeast assay; S. cerevisiae expressing SARS-CoV PLpro, growth rescue; control for the full effect not named in the record; Potency, µM (series often up to 32.9 µM), for the others: at the top dose activity, positive = growth rescue; 0.19% of 330,000 active; AID 485353; active means well fitted rising curve with a large enough effect; inconclusive means small, poorly fitted or top-dose-only effect; inactive means no such curve, though single readings can be large or run the other way; further: 0% is about no effect; nearly all actives have a fitted effect of over 55% in size; growth read by luminescence after 48 h
RE007 growth inh: less growth of the S. pombe RE007 Vpr strain | S. pombe RE007 Vpr strain, BacTiter-Glo ATP luminescence, 24 h; control for the full effect not named in the record | Potency, µM (titrated, usually from 92.2 µM), without a hit: at the highest dose activity change, negative = less growth | 0.21% of 360,000 active | AID 651644; active = well fitted falling curve with a large enough effect; inconclusive = small, poorly fitted or top-dose-only effect; inactive = no such curve, though single readings can be large or run the other way;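 further: on the % scale 0 is the no-effect control and ±100 the full control effect; nearly all actives have a fitted effect of over 50% in size; the assay follows cell death caused by Vpr and the record does not say whether a fall means rescue or toxicity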
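Fission yeast RE007 carrying one integrated HIV-1 vpr copy, seeded at OD 0.01 in PMG+AL medium with 23 nL pinned compound. Grown 24 h at 30 degrees; viability read by BacTiter-Glo luminescence after 5 min.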
Starred values were filed as active, the others as inactive; u = inconclusive; [ ] = dose if it differs, or a comment. Potency means the concentration at half of the fitted maximal effect.

The opening 5 entries (preview)
Results follow in this order: 2A StopGo, SARS PLpro yeast, RE007 growth inh
O=C1CN(C(=O)COC(=O)COc2ccccc2)c2ccccc2N1
    -8%, 0%, 15%
CN(C)S(=O)(=O)c1ccc(Cl)c(NC(=O)CN2C(=O)NC3(CCc4ccccc43)C2=O)c1 (stereo not drawn)
    -17%, 2%, -16%
CC1CCCCC12NC(=O)N(CC(=O)OCC(=O)NC(=O)c1ccccc1)C2=O (stereo not drawn)
    -10%, 2%, -10%
C[C@H](CO)N1C[C@H](C)[C@@H](CN(C)S(=O)(=O)c2ccccc2)Oc2c(NS(=O)(=O)c3ccc(F)cc3)cccc2C1=O
    1%, -8%, -6%
O=C(/C=C/c1ccccc1Cl)Nc1ccc2c(c1)C(=O)NC2=O
    4%, -1%, 12%

All compounds of this part (from the top)
Results follow in this order: 2A StopGo, SARS PLpro yeast, RE007 growth inh
O=C1CN(C(=O)COC(=O)COc2ccccc2)c2ccccc2N1
    -8%, 0%, 15%
CN(C)S(=O)(=O)c1ccc(Cl)c(NC(=O)CN2C(=O)NC3(CCc4ccccc43)C2=O)c1 (stereo not drawn)
    -17%, 2%, -16%
CC1CCCCC12NC(=O)N(CC(=O)OCC(=O)NC(=O)c1ccccc1)C2=O (stereo not drawn)
    -10%, 2%, -10%
C[C@H](CO)N1C[C@H](C)[C@@H](CN(C)S(=O)(=O)c2ccccc2)Oc2c(NS(=O)(=O)c3ccc(F)cc3)cccc2C1=O
    1%, -8%, -6%
O=C(/C=C/c1ccccc1Cl)Nc1ccc2c(c1)C(=O)NC2=O
    4%, -1%, 12%
COc1cccc(NC(=O)CN(C)C(=O)CSCC(=O)Nc2ccc(C)cc2)c1
    -3%, 4%, -9%
CC(=O)O[C@H]1CC[C@@]2(C)[C@@H](CC[C@H]3[C@@H]4CC[C@H](C(C)O)[C@@]4(C)CC(=O)[C@@H]32)C1 (stereo partly drawn)
    -22%, -7%, 20%
COC(=O)C1=C(c2c(C)noc2C)C[C@@H]2CC[C@H]1N2C(=O)NCCNC(C)=O
    -6%, -2%, 2%
O=C(CSc1nc2ccccc2c(=O)n1-c1ccccc1Cl)NC1CCS(=O)(=O)C1 (stereo not drawn)
    -15%, 13%, -18%
CN(Cc1ccco1)C(=O)Cn1nc(-c2ccc(Cl)cc2)ccc1=O
    -16%, -6%, -3%
C[C@H](CO)N1C[C@H](C)[C@@H](CN(C)CC2CCCCC2)Oc2ccc(NC(=O)Cn3cnnn3)cc2C1=O
    1%, 0%, -9%
CCCCn1c(N)c(N(CC(C)C)C(=O)C2=COCCO2)c(=O)[nH]c1=O
    -10%, 6%, 5%
COc1cc(C)c(Cl)c(C)c1S(=O)(=O)NC1CC(C)(C)NC(C)(C)C1
    -7%, -6%, -16%
CC(C)NC(=O)c1cc2n(n1)C(C(F)(F)F)CC(c1ccco1)N2 (stereo not drawn)
    -3%, 0%, 8%
Fc1cccc(CSc2nnc3ccc(-c4ccncc4)nn23)c1
    -9%, -1%, 1%
CCCCn1c2ccc(F)cc2c2nnc(NN)nc21
    0%, -8%, 1%
Cc1ccc2c(c1)C(=O)N1[C@H]3c4cc(Br)ccc4OC[C@@H]3[C@H](c3ccccc3)[C@]1(C)C(=O)N2
    0%, 1%, 8%
CCCN(C(=O)c1cccc(S(=O)(=O)N2CCCc3ccccc32)c1)C1CCS(=O)(=O)C1 (stereo not drawn)
    1%, 3%, 4%
Cc1cc(C)c2sc(N(CCCN(C)C)C(=O)c3ccc(S(=O)(=O)N4CCCc5ccccc54)cc3)nc2c1
    u, -3%, 5%
Cc1ccccc1C(=O)Nc1cccc(C(=O)N/N=C/c2cc(Cl)cc([N+](=O)[O-])c2O)c1
    -6%, 7.9µM*, -1%
Cc1cc(-n2c(C)cc(C(=O)CSc3[nH]c(=O)cc(C(F)(F)F)c3C#N)c2C)no1
    -22%, 3%, -7%
C[C@@H]1CN([C@@H](C)CO)C(=O)c2cccc(NS(C)(=O)=O)c2O[C@H]1CN(C)CC1CCCCC1
    23%, -6%, 4%
CC(C)(C)OC(=O)C[C@H]1C/C=C\C[C@@H](CC(=O)N(CCO)Cc2ccccc2)C(=O)N[C@@H](Cc2ccccc2)COC1=O
    1%, -17%, 4%
Nc1nccnc1C(=O)OCC(=O)NCCc1ccc(Cl)cc1
    -16%, -3%, 18%
COc1ccc(C(=O)N(C)c2c(C)n(C)n(-c3ccccc3)c2=O)cc1OC
    -17%, 0%, -1%
COc1ccc(CNc2nc(NCc3ccc(OC)cc3)c3ncn(C4CCCC4)c3n2)cc1
    -28%, 0%, -9%
COc1ccc(-n2c(=O)c3c4c(sc3n(CC(=O)NC3CCCC3)c2=O)CCCC4)c(OC)c1
    5%, 0%, -7%
O=C(N/C(=C/C=C/c1ccccc1)C(=O)N1CCCCC1)c1ccc([N+](=O)[O-])cc1
    73%[activator], 1%, 10%
Nc1ncnc2c1ncn2[C@@H]1O[C@H](CNCc2ccccc2OCC(=O)N2CCCCC2)[C@@H](O)[C@H]1O
    -11%, 7%, -17%
CC1=CC=CN2C1=NC(=O)CC2(C)C(=O)N(CC(=O)NC1CCCC1)c1cc(C)cc(C)c1 (stereo not drawn)
    -5%, 0%, 1%
C/C(=N\Nc1nc(N2CCCCCC2)nc(N2CCCCCC2)n1)c1ccccc1
    -22%, -6%, u
CC(C)NC(=O)Nc1cccc2c1O[C@H](CN(C)C(=O)Nc1ccccc1)[C@@H](C)CN([C@H](C)CO)C2=O
    -11%, -12%, 6%
Nc1ncnc2c1ncn2[C@@H]1O[C@H](CNC(=O)[C@H]2CCC(=O)N2)[C@@H](O)[C@H]1O
    -2%, 4%, 7%
Cc1ccc(C)c(S(=O)(=O)N2CCCOC2CNC(=O)C(=O)NCc2ccncc2)c1 (stereo not drawn)
    -17%, 0%, -1%
COC(=O)c1ccc(CNC(=O)c2ccc3c(c2)NC(=O)CS3)cc1
    -13%, -1%, 14%
Oc1ccccc1Cc1c(O)ccc2ccccc12
    -12%, -1%, -3%
COc1ccc(-n2nnnc2SCC(=O)N2CCCC2=O)cc1
    -5%, 6%, 11%
Cc1ccc(S(=O)(=O)NN=Cc2ccc(N3CCOCC3)cc2)cc1[N+](=O)[O-]
    16%, -6%, 6%
COc1ccc([C@H]2CC(=O)C=C(c3ccc(-c4ccccc4)c(F)c3)C2)cc1OC
    u, -3%, 5%
CCSC1=NCCN1S(=O)(=O)c1ccccc1
    -15%, 1%, -15%
CCCCCCCCCC[n+]1cccc2c3ccccc3ccc21
    u, -31%, -18%
CCN(CC)C(=O)[C@H]1C[C@H](CC(=O)NCc2ccc(OC)c(OC)c2)C(=O)N2CCc3c([nH]c4cc(CCC(=O)N(C)C)ccc34)[C@]12C
    -16%, 17%, 1%
O=C(NCSc1ccccc1)c1ccccc1
    37%[activator], 0%, 0%
Cc1ccc(Cl)c(NC(=O)COC(=O)c2nn(C)c(=O)c3ccccc23)c1Cl
    7%, 1%, -4%
Cc1c(Cl)cccc1NC(=O)COC(=O)C12CC3CC(CC(O)(C3)C1)C2
    33%[activator], 2%, -5%
Cc1ccc2c(Cl)cc(Cl)c(OCC(=O)NC(C)(C)C)c2n1
    -37%, -1%, -12%
CC[C@]12C(=O)N(C)C[C@H]([C@@H]3C(=O)N(C)C(=O)[C@@H]31)N2C(=O)c1ccc(C(F)(F)F)cc1
    -19%, 0%, -13%
COc1cc([C@@H]2OC[C@@H]3[C@H]2CO[C@@H]3c2ccc3c(c2)OCO3)ccc1O
    -14%, -26%, 16%
O=C(CN1C(=O)c2cccc([N+](=O)[O-])c2C1=O)N1CCN(S(=O)(=O)c2ccccc2)CC1
    -7%, 3%, 3%
CCOC(=O)c1ccc(-c2ccc3oc(-c4ccsc4)cc(=O)c3c2)cc1F
    -9%, -2%, 4%
COc1ccc([C@H]2CC(=O)C=C(c3ccc4ncccc4c3)C2)cc1OC
    u, 0%, 11%
CC(=O)Nc1cccc(NC(=S)Nc2cccc(Cl)c2C)c1
    20%, -1%, 8%
C=CCOc1ccc(/C=C/C(=O)OCC(=O)N2CCC(c3ccccc3)=N2)cc1
    u, -1%, -2%
Cc1ccc(S(=O)(=O)NC23CC4CC(CC(C4)C2)C3)cc1
    42%[activator], 1%, -4%
Cc1cc(Cn2nc(-c3ccccc3)cc2C(=O)NCc2cccc(Br)c2)on1
    5%, -1%, 18%
CCOc1cc(/C=N/Nc2nc(N3CCCCC3)nc(N3CCCCC3)n2)ccc1OC(=O)c1ccco1
    42%[activator], -3%, 8%
Cc1nnc(NC(=O)C2CC(=O)N(c3ccc4c(c3)OCCO4)C2)s1 (stereo not drawn)
    -12%, -1%, 5%
COc1ccc(CN(C)C(=O)CNC(=O)c2cccs2)c(OC)c1
    -1%, 0%, -3%
O=C(NNc1ccc(O)cc1)c1ccc(Br)cc1
    5%, 6%, -16%
CC1CCCCN1CC(=O)Nc1ccc2c(c1)OCO2 (stereo not drawn)
    4%, 1%, 6%

(list continues)
SMILES	2A StopGo	SARS PLpro yeast	RE007 growth inh
CSc1nc(N)nc2c1ncn2CC(=O)NCc1ccccc1	u	-1%	4%
COc1ccc(-c2cc(CCC(=O)N3CCN(c4cc(C)ccc4C)CC3)on2)cc1	-18%	9%	9%
CCc1cccc(CC)c1NC(=S)/C(=C(\[O-])c1ccc(Cl)s1)[n+]1ccccc1	u	1%	u
O=C(CN1C(=O)NC2(CCc3ccccc32)C1=O)Nc1ccccc1Cl (stereo not drawn)	-10%	2%	2%
COc1ccc(S(=O)(=O)NCCC(=O)OCC(=O)c2ccc[nH]2)cc1[N+](=O)[O-]	33%[activator]	0%	1%
CC(=O)c1c(C)[nH]c(C(=O)COc2ccc3c(C)cc(=O)oc3c2)c1C	-14%	1%	-1%
OCC[C@H]1C[C@H](O)[C@@H](O)[C@@]2(CCc3ccccc3CO2)O1	-17%	-6%	17%
COc1ccccc1COC(=O)c1ccc(S(=O)(=O)N2CCOCC2)cc1	-6%	-7%	4%
COc1ccc(CN2C(=O)c3ccccc3C2C(=O)NC2CCC(C)CC2)c(OC)c1 (stereo not drawn)	-5%	0%	15%
COc1ccc([C@H]2C(C(=O)O)=C[C@@H](CC3CCCC3)N2S(=O)(=O)c2ccc(C)cc2)cc1OC	-5%	-5%	-7%
COc1cc(C(=O)OCC(=O)NC2CCCCC2)cc2c1OCCO2	-6%	-4%	5%
C[C@H](CO)N1C[C@H](C)[C@H](CN(C)S(=O)(=O)c2cccs2)Oc2ccc(NC(=O)Nc3ccc4c(c3)OCO4)cc2CC1=O	-25%	-2%	12%
CCC(CO)Oc1cc(NCc2ccc(C(F)(F)F)cc2)c2ncn(C(C)C)c2c1 (stereo not drawn)	-21%	-1%	1%
N#Cc1ccccc1COC(=O)CCC(=O)c1cccs1	-25%	1%	9%
Cc1cc(OCC(=O)OCC(=O)NCC2CCCO2)ccc1Cl (stereo not drawn)	-1%	-7%	3%
COc1cccc(-c2cc3onc(-c4ccccc4)c3c(=O)n2C)c1	-53%	0%	-11%
Cc1ccc(NC(=O)C/C(N)=N/OC(=O)c2ccccc2)cc1	-13%	4%	6%
Cc1cc(C)cc(NC(=O)COC(=O)c2cccc(S(=O)(=O)N3CCCCC3)c2)c1	-13%	-11%	9%
CCc1noc(C)c1C(=O)OCC(=O)NCc1ccccc1OC	10%	2%	-2%
CC(=O)c1cc(-c2ccc(F)cc2)n(CCC(=O)NC(C)(C)C)c1C	-3%	0%	-7%
COc1cc(C(=O)NNC(=O)c2ccccc2OCc2c(C)noc2C)cc(OC)c1OC	-21%	-4%	-15%
NCCCC[C@@H](C(=O)NCCCCCCCCCCC(=O)N1CCNCC1)n1cc(CCCC(=O)O)nn1	-5%	-11%	1%
O=C1C=C(c2cnc3ccccc3c2)C[C@@H](c2ccc3c(c2)OCO3)C1	0%	2%	-2%
O=C(c1c(O)cc(O)cc1O)C1c2c(cc(O)c3c2O[C@H](c2ccc(O)cc2)[C@@H](O)C3)OC1c1ccc(O)cc1 (stereo partly drawn)	-20%	4%	11%
COc1ccc(S(=O)(=O)c2ccccc2)cc1NS(=O)(=O)c1cccc(C(=O)O)c1	0%	0%	14%
CCOc1ncccc1C(=O)OCC(=O)NC(=O)c1ccccc1	-10%	6%	-5%
CCOC(=O)N/N=C/c1c[nH]c2ccccc12	10%	0%	-6%
Cn1nc(-c2ccccc2)nc1-c1ccccc1	68%[activator]	-8%	-4%
CC[C@]1(c2ccccc2OC)ON(c2ccccc2C(F)(F)F)C1=O	22µM*	0%	-6%
CN(CCOc1ccccc1)C(=O)c1cc(-c2ccco2)nc2ccccc12	u	-3%	-12%
COc1ccc(C(=O)NOCc2ccccc2)cc1	-3%	-2%	-9%
COc1ccc2sc(-c3ccc(SC)cc3)c(-c3ccc(O)cc3)c2c1	-25%	3%	-6%

Some of the compounds tested; rates above refer to the full screens.
